# GLA inh pH 4.5 – blocks human alpha-galactosidase A at pH 4.5 | purified enzyme, 4-MU-alpha-Gal fluorescence, pH 4.5 | P06280 | 230,000 tested, under 10 active | activity change, negative = inhibition, % at 105 µM; inconclusive = small, poorly fitted or top-dose-only inhibition, or a rising curve; inactive = flat fitted curve, though single readings scatter; no compound was filed as active;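 also: 0% = full activity with enzyme and -100% = basal without enzyme; dose as in the result columns while the protocol names 77 µM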
# Rango release inh – inhibition of RanGTP-driven Rango-importin beta dissociation. actives 0.071% (n = 340,000). Potency, µM (titrated, usually from 46.1 µM), for the others: top-dose activity change, negative = inhibition. O95149+P62826. Biochemical FRET Rango-importin beta, RanGTP-induced dissociation; active means falling FRET ratio curve, often poorly fitted, with flat reads before Ran was added; inconclusive means other falling curves, or compound fluorescence or quenching; inactive means flat or rising ratio curve;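 also: potency is read from the fitted curve at half-maximal effect; % of control where 0% means no effect; nearly all actives have a fitted effect of over 45% in size; -100% = wells without RanGTP and RCC1; the record marks most hits as doubtful in a second field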
#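 Rango (0.1 uM)–importin beta (0.25 uM) complex; RanGTP-RCC1 trigger; 45 min RT; CFP/YFP FRET read.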
# miR-21 FLuc – miR-21 reporter, rising signal; HeLa miR-21 FLuc reporter, luciferase, 48 h; Potency, µM (top dose mostly 38.3 µM), for the others: at the highest dose reporter change, positive = more light; 340,000 tested, under 10 active; active = well fitted rising curve with a large enough effect; inconclusive = small, poorly fitted or top-dose-only effect; inactive = no such curve, though single readings can be large or run the other way;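 also: % of control where 0% means no effect; miR-21 action dims this reporter so a rising signal means less miR-21 action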
#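 Luminescence from a firefly luciferase reporter carrying a miR-21 binding site downstream, stably expressed under a CMV promoter in HeLa cells that make miR-21 endogenously, reports miRNA modulation after 48 h compound exposure up to approximately 40uM final.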
# Rango-impB inh – Rango-importin beta binding inhibition; actives 0.031% (n = 340,000); Potency, µM (doses to about 92.2 µM), inactives show at the highest dose inhibition of complex formation; Q14974; Rango CFP/YFP FRET sensor + importin beta, 45 min; active = rising FRET ratio curve, often small or poorly fitted; inconclusive = mostly compound fluorescence or quenching in the first reads; inactive = flat curves in all reads;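 also: potency is read from the fitted curve at half-maximal effect; 0% = DMSO wells and 100% = buffer wells lacking importin beta; nearly all actives have a fitted effect of over 15% in size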
# Target sequence (Q14974 whole entry, looked up): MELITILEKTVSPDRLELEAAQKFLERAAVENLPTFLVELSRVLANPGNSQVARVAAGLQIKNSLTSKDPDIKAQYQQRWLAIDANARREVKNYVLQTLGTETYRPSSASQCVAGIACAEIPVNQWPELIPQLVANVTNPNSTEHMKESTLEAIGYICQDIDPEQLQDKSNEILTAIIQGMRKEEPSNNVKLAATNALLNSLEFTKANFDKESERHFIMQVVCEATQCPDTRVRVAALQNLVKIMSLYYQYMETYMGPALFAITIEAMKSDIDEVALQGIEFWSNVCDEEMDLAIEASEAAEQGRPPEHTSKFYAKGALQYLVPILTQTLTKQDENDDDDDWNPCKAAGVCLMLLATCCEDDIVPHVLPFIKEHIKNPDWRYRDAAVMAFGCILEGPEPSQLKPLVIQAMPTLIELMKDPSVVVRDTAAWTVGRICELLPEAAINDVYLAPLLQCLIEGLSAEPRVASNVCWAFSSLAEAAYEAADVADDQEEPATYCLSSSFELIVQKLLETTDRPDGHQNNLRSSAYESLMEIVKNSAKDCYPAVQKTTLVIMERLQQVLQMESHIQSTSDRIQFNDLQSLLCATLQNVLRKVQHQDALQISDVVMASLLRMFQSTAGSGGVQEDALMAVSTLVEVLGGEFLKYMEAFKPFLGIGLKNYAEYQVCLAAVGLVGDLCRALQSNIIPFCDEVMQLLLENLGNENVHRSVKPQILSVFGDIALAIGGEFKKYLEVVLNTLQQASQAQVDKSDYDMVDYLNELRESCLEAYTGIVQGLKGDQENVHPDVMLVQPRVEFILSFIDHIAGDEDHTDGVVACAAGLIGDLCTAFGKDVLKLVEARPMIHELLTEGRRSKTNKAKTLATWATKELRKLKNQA
#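 FRET biosensor Rango (snurportin 1 IBB between N-terminal EYFP and C-terminal Cerulean), 50 nM in PBS/1 mM DTT/0.02% Tween-20/0.1% BSA, preincubated 5 min RT with compound; 0.125 microM importin beta added, 45 min RT, CFP/YFP FRET ratio read.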
# Starred values were filed as active, the others as inactive; ? = inconclusive; . = not tested or not shown; & = joins results of further samples.
1. Cn1c(C(=O)NC2CCCCCC2)cc2c(=O)n(C)c3ccccc3c21
2. COc1cccc(-n2nc(-c3ccnn3-c3ccc(F)cc3)c(=O)n(C)c2=O)c1
3. CC(C)[C@H](NS(=O)(=O)c1cccc(Cl)c1)C(=O)OCC(=O)NC(=O)CN1CCCC1=O
4. CN(Cc1ccncn1)C(=O)CC1C(=O)NCCN1Cc1cccc(Oc2ccccc2)c1 (centres undefined)
5. Cc1cc(Nc2c(C)n(C)n(-c3ccccc3)c2=O)n2c(nc3cc(F)c(F)cc32)c1C#N
6. O=C(O[C@@H]1Cc2c(O)cc(O)cc2O[C@@H]1c1cc(O)c(O)c(O)c1)c1cc(O)c(O)c(O)c1
assay / compound	1	2	3	4	5	6
GLA inh pH 4.5	-5.2	-6.8	.	-3.9	3.2	0.1
Rango release inh	-4.0%	12.8%	17.8%	-15.4%	?	.
miR-21 FLuc	-9.6%	2.0%	.	2.3%	2.4%	0.3%
Rango-impB inh	0.0%	0.8%	2.8%	?	?	.

7. CC(C)CNC(CC(=O)Nc1cccc([N+](=O)[O-])c1)C(=O)O (centres undefined)
8. COc1ccc(NC(=S)NC(NC(=O)c2cccc(C)c2)C(Cl)(Cl)Cl)c([N+](=O)[O-])c1 (centres undefined)
9. O=C(NCCc1ccccc1)/C(=C\c1ccc([N+](=O)[O-])cc1)NC(=O)c1ccccc1
10. O=C1NCC(c2ccccc2)C1C(=O)N/N=C\c1ccc(-c2ccc(Cl)c(Cl)c2)o1 (centres undefined)
11. Cc1onc(-c2ccccc2)c1C(=O)OCC(=O)N1CCN(c2ccccc2)CC1
12. CC1(C)SC(=S)N(NC(=O)Nc2ccccc2)C1N(O)C(=O)Nc1ccccc1 (centres undefined)
assay / compound	7	8	9	10	11	12
GLA inh pH 4.5	-5.5	-8.3	7.6	-2.0	.	3.1
Rango release inh	-5.2%	-9.4%	-8.8%	0.6%	7.2%	1.0%
miR-21 FLuc	-3.1%	0.5%	-6.6%	-4.7%	.	17.2%
Rango-impB inh	3.3%	0.1%	?	-0.4%	2.2%	-0.3%

# Single records (already shown). Order of screens: GLA inh pH 4.5 | Rango release inh | miR-21 FLuc | Rango-impB inh
# Cc1onc(-c2ccccc2)c1C(=O)OCC(=O)N1CCN(c2ccccc2)CC1 is listed as . | 7.2% | . | 2.2%
# CC(C)CNC(CC(=O)Nc1cccc([N+](=O)[O-])c1)C(=O)O (centres undefined) is listed as -5.5 | -5.2% | -3.1% | 3.3%

# Other entries follow:
13. Nc1nccc(/C=C/c2ccc(Cl)cc2)n1
14. NC(=O)c1ccc(NC(=O)c2cnc3ccccc3n2)cc1
15. CCN(C(=O)COC(=O)C12CC3CC(CC(NC(C)=O)(C3)C1)C2)C1CCCCC1
16. O=C(CNC(=O)OCc1ccccc1)Nc1ccc(F)cc1
17. Cc1ccc(S(=O)(=O)n2[nH]c(=O)cc2NC(=O)c2cccs2)cc1
18. Cc1ccc(-c2noc(CN(C(=O)CCCN3C(=O)c4ccccc4C3=O)C(C)C)n2)cc1
assay / compound	13	14	15	16	17	18
GLA inh pH 4.5	3.6	2.9	.	.	7.7	.
Rango release inh	-22.7%	-9.6%	-0.2%	-1.7%	.	9.5%
miR-21 FLuc	-70.2%	-64.9%	.	.	0.4%	.
Rango-impB inh	-2.8%	0.6%	-2.6%	-0.9%	.	1.3%

19. Cc1ccc(C(=O)NNC(=O)c2ccc(C)cc2)cc1
20. O=C(O)c1ccc(N/N=C/c2c[nH]c3ccccc23)cc1
21. N=C1C(c2ccccc2)=C(O)CN1NC(=O)c1ccccc1
22. O=C(Cn1c(=O)cnc2ccccc21)NCC(=O)Nc1ccc(F)c(F)c1
23. Cc1csc(NS(=O)(=O)c2cccc([N+](=O)[O-])c2)n1
24. CC(C)(C)c1ccc(-c2nc(C#N)c(N3CCC(C(N)=O)CC3)o2)cc1
assay / compound	19	20	21	22	23	24
GLA inh pH 4.5	5.5	.	1.8	.	-6.4	.
Rango release inh	-4.9%	12.6%	0.6%	-11.4%	-13.3%	-18.1%
miR-21 FLuc	-24.7%	26.8%	-2.1%	.	-2.9%	-21.2%
Rango-impB inh	-1.3%	3.0%	-2.7%	-1.0%	-0.1%	0.8%

25. CCOc1ccc(N2C(=O)CC(N(CCc3ccc(OC)cc3)C(=O)c3cccc(F)c3)C2=O)cc1 (centres undefined)
26. CCOc1ccc(S(=O)(=O)Nc2cccc(C(=O)N(C)Cc3cccc(OC)c3OC)c2)cc1
27. O=C(COc1ccccc1Cl)c1ccc[nH]1
28. O=C(NC1CCCCC1)c1ccccc1NC(=S)NC(=O)C1CCC1
29. C=CCNC(=S)N1CCN(c2ccccc2Cl)CC1
30. COc1ccc(N2CCN(C(=O)c3ccc(S(=O)(=O)N4CCCCCC4)cc3)CC2)cc1
assay / compound	25	26	27	28	29	30
GLA inh pH 4.5	-8.0	.	0.7	3.6	-2.3	.
Rango release inh	16.3%	0.3%	-1.6%	-13.2%	27.8%	14.1%
miR-21 FLuc	-5.5%	-3.2%	-36.9%	-14.4%	4.8%	.
Rango-impB inh	-1.0%	-0.2%	0.6%	1.6%	3.6%	-1.5%

31. COc1ccc(CN2CCC(C(=O)c3ccc(F)cc3)CC2)cc1
32. Cc1ccc(C(=O)NNC(=O)c2cc(OCC(F)(F)F)ccc2OCC(F)(F)F)cc1
33. Cn1c(=O)c2cc(S(=O)(=O)NC(C(=O)NC3CCCCC3)c3ccccc3)ccc2n(C)c1=O (centres undefined)
34. CC(C)CC(=O)N[C@H](C(=O)N[C@H](C(=O)N[C@@H](CC(C)C)[C@@H](O)CC(=O)N[C@@H](C)C(=O)N[C@@H](CC(C)C)[C@@H](O)CC(=O)O)C(C)C)C(C)C
35. C/C(=N\Nc1nc(N)cc(Cl)n1)c1ccc(Cl)c(Cl)c1
36. CCCCn1c(N)c(NCCC(C)C)c(=O)[nH]c1=O
assay / compound	31	32	33	34	35	36
GLA inh pH 4.5	.	0.5	-0.4	-11.0&-3.4	-6.9	7.6
Rango release inh	-5.3%	-1.4%	11.1%	12.8%	8.0%	?
miR-21 FLuc	1.2%	-3.9%	-5.4%	-0.6%	-30.1%	0.5%
Rango-impB inh	-1.2%	-0.1%	6.6%	-4.9%	-2.2%	?

37. C[C@@H](CO)NC(=O)c1ccc2c3n(nc2c1)-c1ccc(Cl)cc1CO3
38. CCN1C(=O)C2(C(C(=O)c3ccc(C)o3)=C(O)C(=O)N2CCCN2CCOCC2)c2ccccc21 (centres undefined)
39. Cc1ccc(NS(=O)(=O)c2cc(C(=O)Nc3cccc([N+](=O)[O-])c3)ccc2C)cc1
40. COc1cc(OC)cc(C(=O)N2CCN(c3ncccn3)CC2)c1
41. Nc1c(N(CCC2=CCCCC2)C(=O)Cc2ccccc2F)c(=O)[nH]c(=O)n1Cc1ccccc1
42. COC(=O)/C=C/c1ccc(-n2cncn2)cc1
assay / compound	37	38	39	40	41	42
GLA inh pH 4.5	2.8	-4.6	1.3	7.6	.	-1.9
Rango release inh	?	0.3%	-16.9%	-4.2%	-1.8%	-10.5%
miR-21 FLuc	-34.6%	-0.5%	?	-2.4%	.	-15.5%
Rango-impB inh	-2.3%	3.3%	1.9%	?	-2.4%	4.6%

43. COc1ccc(C(=O)NC(C)CCc2ccccc2)c(O)c1 (centres undefined)
44. CCN(CC)S(=O)(=O)c1ccc(C(=O)NCCN2C(=O)S/C(=C\c3cccnc3)C2=O)cc1
45. CCCC(=O)NC(c1ccco1)c1cc(Cl)c2cccnc2c1O (centres undefined)
46. Cc1ccc(C)c(Sc2ccc(NC(=O)CCl)cc2)c1
47. CCCCc1nc2n[nH]c(N)c2c2c1CCC2
48. CC(=O)C1C(c2ccc(OC(F)F)cc2)NC(=O)NC1(O)C(F)(F)F (centres undefined)
assay / compound	43	44	45	46	47	48
GLA inh pH 4.5	.	-5.3	2.9	-13.1	3.7	1.1
Rango release inh	-2.2%	-8.6%	-14.2%	-2.4%	5.8%	-20.4%
miR-21 FLuc	-23.7%	0.3%	25.7%	21.0%	-33.5%	-1.7%
Rango-impB inh	-1.6%	-1.9%	-0.2%	0.8%	-5.0%	-3.2%

49. CC(C)c1nccn1S(=O)(=O)c1cc([N+](=O)[O-])ccc1Cl
50. COc1cc(CCC(=O)Nc2ccncc2Cl)cc(OC)c1OC
51. CC(C)C[C@H](NC(=O)OC(C)(C)C)C(=O)N[C@@H](CO)[C@H](O)[C@@H]1C[C@@H]1C(=O)N1CCCC1
52. CC(=O)N1CCc2cc(S(=O)(=O)NCCC(=O)NC3CCCCCC3)ccc21
53. CC(C)(C)NC(=O)C(c1ccncc1)N(C(=O)Cn1nnc(-c2cccs2)n1)C1CCCCC1 (centres undefined)
54. COc1ccc(C)cc1NC(=O)CSc1nc(=O)n(CCCN2CCOCC2)c2c1CCCC2
assay / compound	49	50	51	52	53	54
GLA inh pH 4.5	-8.8	.	.	.	4.1	.
Rango release inh	-9.5%	-14.2%	0.7%	7.3%	-7.8%	-8.1%
miR-21 FLuc	-7.3%	7.8%	0.1%	-4.1%	-10.8%	.
Rango-impB inh	-0.3%	1.5%	0.8%	-0.3%	-0.2%	-2.2%

55. CCc1ccc(CN2CC(C(=O)O)CC2=O)cc1 (centres undefined)
56. O=C(c1cc(-c2ccc(F)cc2)on1)N1CCCC1
57. Cc1ccc(NC(=O)NC(=O)N(C(C)C)S(=O)(=O)c2ccc(C)cc2)cc1
58. C[C@H](CO)N1C[C@H](C)[C@@H](CN(C)S(=O)(=O)c2ccc(F)cc2)Oc2ccc(NC(=O)Cc3cn(C)c4ccccc34)cc2C1=O
59. Cc1ccccc1NC(=O)C(=O)NC(C)CCc1ccccc1 (centres undefined)
60. Cc1c(Cl)c(C(F)F)nn1CC(=O)NC1C(=O)N2C(C(=O)O)=C(CSc3nnnn3C)CSC12 (centres undefined)
assay / compound	55	56	57	58	59	60
GLA inh pH 4.5	-6.7	-1.4	-2.0	.	-2.3	-0.6
Rango release inh	1.7%	-16.3%	-9.4%	0.1%	16.1%	-2.7%
miR-21 FLuc	0.0%	-42.0%	-23.8%	.	-15.9%	-3.2%
Rango-impB inh	0.4%	0.1%	-3.3%	-5.7%	0.0%	0.0%

# Reprinted at random: 2 records from the list, in no set order.
60. Cc1c(Cl)c(C(F)F)nn1CC(=O)NC1C(=O)N2C(C(=O)O)=C(CSc3nnnn3C)CSC12 (centres undefined)
59. Cc1ccccc1NC(=O)C(=O)NC(C)CCc1ccccc1 (centres undefined)
assay / compound	60	59
GLA inh pH 4.5	-0.6	-2.3
Rango release inh	-2.7%	16.1%
miR-21 FLuc	-3.2%	-15.9%
Rango-impB inh	0.0%	0.0%

# Next section.
61. O=C(NCC1CCCO1)c1cccc(NC(=O)c2cccs2)c1 (centres undefined)
62. COc1ccc(Nc2cc(C)nc(N3CCN(C(=O)c4ccc5c(c4)OCO5)CC3)n2)cc1
63. O=C(COC(=O)c1cncc(Br)c1)NC1CCCCCC1
64. CC(Cc1cccs1)NC(=S)Nc1ccc(Cl)c(Cl)c1 (centres undefined)
65. O=C1COc2ccc(C(=O)C[n+]3cccc(O)c3)cc2N1
66. O=C(NCCCN1CCCC1)c1ccc(Cn2c(=S)[nH]c3ccc(Br)cc3c2=O)cc1
67. COc1cc2c(cc1NC(=O)COC(=O)[C@@H](NC(=O)c1ccccc1)C(C)C)oc1ccccc12
68. O=C(CCc1ccccc1)NNC(=O)Nc1ccc(Br)cc1
69. O=C1N/C(=C\c2ccc(O)cc2)C(O)=C1C=NCc1ccccc1
assay / compound	61	62	63	64	65	66	67	68	69
GLA inh pH 4.5	3.7	.	10.4	-8.7	-21.9	-14.0	6.7	.	-7.2
Rango release inh	9.1%	-10.2%	?	6.2%	-1.0%	.	12.0%	0.4%	15.2%
miR-21 FLuc	-4.9%	.	0.1%	-18.1%	-3.1%	-16.1%	-14.5%	-16.0%	5.1%
Rango-impB inh	-0.6%	-3.9%	?	1.7%	-3.0%	.	1.6%	-0.2%	-3.5%

# Limited to miR-21 FLuc, for 2 of the compounds above:
nr | SMILES | miR-21 FLuc
37 | C[C@@H](CO)NC(=O)c1ccc2c3n(nc2c1)-c1ccc(Cl)cc1CO3 | -34.6%
38 | CCN1C(=O)C2(C(C(=O)c3ccc(C)o3)=C(O)C(=O)N2CCCN2CCOCC2)c2ccccc21 (centres undefined) | -0.5%

# This is a subset, so the mix of outcomes need not match the whole.
